From PubChem BioAssay
FGF22 binding: shifts melting point of recombinant human FGF22 | Q9HCT0 | recombinant FGF22 thermal shift, SYPRO orange fluorescence; percent of sucrose octasulfate shift, DMSO zero | calls only at 9.99 µM | 1.5% of 340,000 active;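 active = melting point raised past a set limit in the mean and every replicate; three in four hits are not shown here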
Target sequence (Q9HCT0 whole entry, looked up): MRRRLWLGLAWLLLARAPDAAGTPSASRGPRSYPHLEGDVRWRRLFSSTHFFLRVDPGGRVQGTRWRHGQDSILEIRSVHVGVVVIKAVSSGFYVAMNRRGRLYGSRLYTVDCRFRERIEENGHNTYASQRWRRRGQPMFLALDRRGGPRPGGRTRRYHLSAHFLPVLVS
B2AR ag: human beta-2 adrenergic receptor agonism by FAP. 0.43% of 340,000 active. response, % (no concentration beside the values). Am2.2-beta2AR cells, FAP receptor internalization, flow cytometry; reference of the scale not given here. P07550. AID 504454;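 active = response above a set limit, near 3 SD of response in nonfluorescent compounds, cut at about 42% in these data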;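 note: stock transfer was 100 nL into about 11 µL; a reference agonist was the positive control; negative values mostly stem from fluorescent compounds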
Ecoli growth: blocks Escherichia coli growth | 0.21% of 330,000 active | OD600 absorbance (concentration not given with the values) | OD600, 23 h; stronger effect = lower value | AID 1053175;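 active = OD600 absorbance below the run mean of sample wells minus 3.6 SD, in any replicate, cut at about 0.56 in these data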;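 note: stock transfer was 300 nL into about 60 µL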
ALR H2O2 inh: blocks human ALR sulfhydryl oxidase activity; P55789; purified ALR, DTT oxidation, H2O2 HRP-luminol luminescence; inhibition, % (test concentration not listed); 3.8% of 290,000 active; AID 485317;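 active = mean and each replicate at 75% or more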;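 note: stock transfer was 7.5 nL into about 7.5 µL; 0% = neutral wells and 100% = wells with inactivated enzyme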
Target sequence (P55789 whole entry, looked up): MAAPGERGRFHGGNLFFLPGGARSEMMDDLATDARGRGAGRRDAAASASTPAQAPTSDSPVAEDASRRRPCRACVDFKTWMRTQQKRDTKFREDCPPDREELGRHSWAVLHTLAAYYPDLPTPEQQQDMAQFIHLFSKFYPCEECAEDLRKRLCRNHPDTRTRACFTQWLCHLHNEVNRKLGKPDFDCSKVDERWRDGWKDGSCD
Ecoli rRNA inh: inhibits bacterial ribosomal RNA function over humanized ribosomes; 1.6% of 350,000 active; AID 720706; GFP signal change (wild-type ribosome), % (test concentration not listed); E. coli WT GFP vs humanized-ribosome RFP mutants, fluorescence, 24 h; stronger effect = lower value; DMSO median 0, no signal -100;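 active = significant combined selectivity score with lowered wild-type GFP, culture density cut under 30%, mutant RFP and density less affected; inactive = any of these conditions unmet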; note: one replicate is shown; some compounds called inactive have numbers as strong as hits
UCH37 DUB inh: blocks the human deubiquitinase UCH37. inhibition, % (concentration not given with the values). purified proteasome/UCH37, Ub-AMC cleavage fluorescence. Q9Y5K5. 0.33% of 330,000 active;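 active = mean of two replicates above 20%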;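 note: 0% = compound-free wells with enzyme and 100% = wells lacking proteasome; stock transfer was 100 nL into about 20 µL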
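Schedule: 30 min plus 25 min, room temperature / Material: human UCH37 within purified proteasomes / Technique: AMC fluorescence intensity at 355/460 nm / Buffer or medium: pH 7.4 Tris-HCl (50 mM) with ovalbumin, ATP-MgCl2, DTT / Controls: wells without proteasome as full block, compound-free enzyme plus substrate as uninhibited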
HNF4A DNA FP: change in binding of human HNF4 alpha to DNA; HNF4a-FITC DNA binding, fluorescence polarization, 1 h; activity change, % at 10 µM; 0.3% of 360,000 active; AID 1224865; in the data active = activity change above about 30%, passing the limit was not always enough;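 note: controls were the assay level and a saturating level of protein; the project sought stronger binding though the title names inhibitors; some compounds called inactive have numbers as strong as hits; positive values seem to mean higher polarization but the record does not say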
Target sequence (P41235 whole entry, looked up): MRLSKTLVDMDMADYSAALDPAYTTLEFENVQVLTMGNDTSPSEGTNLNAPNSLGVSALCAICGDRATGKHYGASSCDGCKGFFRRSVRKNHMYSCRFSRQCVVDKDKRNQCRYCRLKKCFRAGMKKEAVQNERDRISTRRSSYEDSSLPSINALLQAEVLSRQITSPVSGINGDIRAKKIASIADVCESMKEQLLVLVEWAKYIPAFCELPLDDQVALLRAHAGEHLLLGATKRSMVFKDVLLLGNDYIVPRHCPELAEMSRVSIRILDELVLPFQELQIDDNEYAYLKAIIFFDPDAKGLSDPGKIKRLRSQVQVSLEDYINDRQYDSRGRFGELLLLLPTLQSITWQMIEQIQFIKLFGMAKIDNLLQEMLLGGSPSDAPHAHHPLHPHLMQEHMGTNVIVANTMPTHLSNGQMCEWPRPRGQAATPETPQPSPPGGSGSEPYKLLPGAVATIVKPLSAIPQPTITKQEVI
Ecoli rRNA inh OD600: recorded beside Ecoli rRNA inh, whose call it bears; OD600 change, %; measured here: OD600 growth;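 optical density of the mix in the first replicate; 0 = DMSO median and -100 = no signal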
Ecoli rRNA inh RFP: recorded beside Ecoli rRNA inh, whose call it bears; RFP signal change, %; measured here: RFP humanized mutant strains;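 first replicate; 0 = DMSO median and -100 = no signal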
An asterisk follows results filed as active; i = inactive; / = not tested or not shown.

SMILES	FGF22 binding	B2AR ag	Ecoli growth	ALR H2O2 inh	Ecoli rRNA inh	Ecoli rRNA inh OD600	Ecoli rRNA inh RFP	UCH37 DUB inh	HNF4A DNA FP
C[C@@H]1CC=C[C@H]2[C@H]1C(=O)N(Cc1ccccc1)[C@H]2c1ccc2ccccc2c1Br	i	-2	/	/	-16	2	-3.1	-0.5	-1.0
C[C@H]1COC(=O)[C@H](CC(=O)OC(C)(C)C)C/C=C\C[C@@H](CC(=O)N(CCO)Cc2ccccc2)C(=O)N1	i	1	/	-11	5	8	6.6	0.9	-2.7
O=C(/C=C/c1ccco1)NCC1OCCc2ccccc21 (stereo not drawn)	i	5	0.67	98*	17	-2	6.1	1.9	-21
CCc1ccc(-c2cc(C(=O)Nn3cnnc3)c3ccccc3n2)cc1	i	6	0.72	-3	-7	4	7.3	1.4	3.0
Cc1[nH]c2ccccc2c1C(=O)COC(=O)c1ccc2c(=O)n3c(nc2c1)CCC3	i	0	0.72	-11	8	5	5.3	-1.0	1.7
Cc1cc(-c2nn(C)c(=O)c3ccccc23)ccc1CNC(=O)NC1CCCCC1	i	-4	0.71	-11	-1	1	0.8	2.0	-1.6
O=C(/C=C/c1ccccc1)Nc1ccc(S(=O)(=O)N2CCOCC2)cc1	i	16	0.71	-6	-2	-5	-0.7	5.8	0.4
c1ccc(CSc2nnc3c(n2)OC(c2ccco2)Nc2ccccc2-3)cc1 (stereo not drawn)	/	7	0.69	20	/	/	/	4.3	3.1
CC(=O)CCN1C(=O)NC2(CCCc3ccccc32)C1=O (stereo not drawn)	i	2	0.73	-2	-1	13	6.2	0.1	0.8
CCCC(CCC(=O)Nc1cc([N+](=O)[O-])ccc1O)C(=O)O (stereo not drawn)	i	-1	0.65	57	8	9	0.5	9.4	-4.3
O=C1CCC(=O)N1c1cccc(-c2nc3ccccc3o2)c1	i	-16	0.73	-15	2	0	-2.5	4.5	-4.3
O=C(CSc1nc(O)c(Cc2ccccc2)c(=O)[nH]1)c1ccccc1	i	0	0.67	/	-1	-5	-1.0	7.6	1.0
Cc1ccccc1C(=O)c1c[nH]c(C(=O)NCc2cccs2)c1	/	-3	0.78	-14	/	/	/	2.6	3.3
CCSc1nnc(NC(=O)CSc2nnc(CNC(=O)c3cc(OC)c(OC)c(OC)c3)o2)s1	/	0	0.69	49	/	/	/	4.5	-3.5
COc1ccc2c(c1)[nH]c1c(=O)n(N)cnc12	i	-14	/	-6	22	11	2.0	/	-1.2
Nc1ccc(C(=O)OCc2csc(-c3ccccc3)n2)cc1[N+](=O)[O-]	/	-3	/	99*	/	/	/	/	2.4
C=CCN(CC=C)S(=O)(=O)c1ccc(C(=O)Nc2sc3c(c2C(N)=O)CCCCC3)cc1	/	10	0.71	11	/	/	/	-42	-1.5
CN(Cc1ccc2c(c1)OCCO2)C(=O)CSc1ncnc2sccc12	i	6	0.69	19	/	/	/	2.2	5.9
C/C(=N\Nc1nc(C(C)(C)C)cs1)c1ccc(O)cc1	i	5	/	/	7	7	3.9	/	0.0
O=C(Cc1ccc([N+](=O)[O-])cc1)NC(C(=O)O)C(O)c1cccc([N+](=O)[O-])c1 (stereo not drawn)	i	-4	0.63	-3	7	12	-1.9	0.8	1.5
CCN(CC)C(=S)SCC(=O)c1ccc(F)cc1	/	-2	0.69	3	/	/	/	0.9	2.5
CCCOc1cc(N(CC)CC)ccc1/C=C(/C#N)c1nc2ccc(C)cc2[nH]1	i	-453	/	-2	28	5	39	/	103
O=C(c1cnn(C(=O)c2ccco2)c1)c1ccccc1O	i	11	0.67	42	0	2	-2.9	-35	-1.8
COc1ccc(NC(=O)C2C(c3ccccc3)C2(Cl)Cl)cc1 (stereo not drawn)	i	2	0.64	-6	-39*	1.7*	-9.5*	4.8	2.8
COc1ccc(CCNC(=S)N2CCC(C(=O)c3ccc(F)cc3)CC2)cc1OC	/	2	0.59	-4	-36	-40	5.1	0.5	2.6

SMILES	FGF22 binding	B2AR ag	Ecoli growth	ALR H2O2 inh	Ecoli rRNA inh	Ecoli rRNA inh OD600	Ecoli rRNA inh RFP	UCH37 DUB inh	HNF4A DNA FP
N=c1n(CCO)c2ccccc2n1CCN1CCCCC1	i	-2	0.7	-3	17	11	7.4	-0.7	3.2
Cc1cc(C(=O)N2CCc3ccccc3C2)no1	i	8	0.68	5	10	9	-0.8	-2.0	-0.4
CC1CC1C(=O)OCC(=O)NCc1ccc(Cl)cc1 (stereo not drawn)	/	-9	0.7	/	/	/	/	1.8	-3.0
CC(NC(=O)C1CCCN(S(=O)(=O)c2cccc3nonc23)C1)c1ccccc1 (stereo not drawn)	/	9	0.66	-16	/	/	/	-1.2	16
COc1cc(O)c2c(=O)c3c(O[C@H]4O[C@@H](CO)[C@H](O)[C@@H](O)[C@@H]4O)ccc(O)c3oc2c1	i	-8	/	39	8	1	4.0	0.6	-2.0
CCOC(=O)CCC(=O)Nc1ccccc1C(N)=O	/	-2	0.66	-8	/	/	/	3.5	4.9
Cc1c(C(=O)NCc2ccc3c(c2)cc(C)n3C)cccc1[N+](=O)[O-]	i	2	0.79	-5	-7	6	41	6.6	-4.8
CCCCn1c(N)c(N(CCC(C)C)C(=O)C2CSC3(C)CCC(=O)N23)c(=O)[nH]c1=O (stereo not drawn)	i	-2	0.59	-1	15	13	0.8	0.1	2.6
COc1cc2[nH]c(=S)nc(NCc3cccs3)c2cc1OC	i	-3	0.71	21	-24	-25	-3.4	-1.5	3.4
O=C(Nc1ccccc1)c1cnc2ccccc2n1	/	-8	0.66	2	/	/	/	5.8	-2.5
CCCn1c(-c2ccc(OC)cc2)nc2c(=O)n(C)c(=O)[nH]c21	/	3	0.79	5	/	/	/	-52	-2.2
Cc1ccc(C)c(OCCCN2CCNCC2)c1	i	3	0.63	10	17	-2	-0.7	3.9	5.4
Cc1ccc(NC(=O)CN2C(=O)c3ccccc3S2(=O)=O)c(C)c1	i	-5	0.69	-6	11	14	6.5	3.1	-3.2
O=C(OCCN1C(=O)c2ccccc2C1=O)c1ccccc1	i	-3	0.65	-1	-10	-9	3.1	0.3	-0.1
COC(=O)C1=C(C(=O)OC)[C@@H]2N(Cc3ccccc3)c3ccccc3[C@@]23C[C@@H](C(=O)OC)N(C(=O)c2cccs2)C3=N1	i	13	/	-1	-3	14	4.2	1.4	1.4
COc1ccc(CCNC(=O)c2cccc(S(=O)(=O)N3CCOCC3)c2)cc1OC	i	0	0.72	/	1	-1	3.7	1.8	0.6
CC(=O)Nc1ccc(NC(=S)NC(=O)c2cc3ccccc3o2)cc1	i	-19	0.7	-35	-1	7	1.5	-2.4	-0.9
CCC(C)N=C1SCC(C)(/C=N/O)S1 (stereo not drawn)	/	0	/	-15	/	/	/	/	0.8
Cc1cc(F)ccc1C(O)c1ncc(-c2ccccc2)[nH]1 (stereo not drawn)	i	/	/	/	4	2	-3.1	/	-3.7
C=CCSc1nc(-c2ccc(OC)cc2)c(C#N)c(=O)n1CC=C	i	-3	0.7	/	-32	-40	-2.4	-11	-1.2
O=C(Nc1ccc(N2CCN(C(=O)c3cccs3)CC2)cc1)c1ccco1	i	-7	0.69	7	-51	-78	-13	-2.0	-0.1
Cn1c(Cc2ccccc2)nnc1SCC(=O)NC1CCCC1	i	-6	0.65	-2	7	10	0.9	4.6	-0.9
N#Cc1ccc(C(=O)OCC(=O)Nc2ccc(N3CCOCC3)cc2)cc1	i	2	0.74	-33	2	7	0.0	-0.8	-3.2
COc1cccc2[nH]c(C(=O)NCCCN3CCCC3=O)cc12	i	-3	0.69	-6	5	5	4.7	-45	1.5
COc1cccc(C(C)(O)c2nc(-c3ccccc3OC)cs2)c1 (stereo not drawn)	i	/	/	/	-26	-67	-12	/	3.6

Some of these compounds in order of count of non-hydrogen atoms, high to low.
SMILES	FGF22 binding	B2AR ag	Ecoli growth	ALR H2O2 inh	Ecoli rRNA inh	Ecoli rRNA inh OD600	Ecoli rRNA inh RFP	UCH37 DUB inh	HNF4A DNA FP
CCCCn1c(N)c(N(CCC(C)C)C(=O)C2CSC3(C)CCC(=O)N23)c(=O)[nH]c1=O (stereo not drawn)	i	-2	0.59	-1	15	13	0.8	0.1	2.6
C=CCSc1nc(-c2ccc(OC)cc2)c(C#N)c(=O)n1CC=C	i	-3	0.7	/	-32	-40	-2.4	-11	-1.2
COc1cccc2[nH]c(C(=O)NCCCN3CCCC3=O)cc12	i	-3	0.69	-6	5	5	4.7	-45	1.5

The list continues:
SMILES	FGF22 binding	B2AR ag	Ecoli growth	ALR H2O2 inh	Ecoli rRNA inh	Ecoli rRNA inh OD600	Ecoli rRNA inh RFP	UCH37 DUB inh	HNF4A DNA FP
CN(C)CCCN(C(=O)c1ccc2c(c1)CCCC2)c1nc2cc3c(cc2s1)OCO3	i	13	0.68	-5	-29	-34	-0.4	4.9	-1.0
O=C(Oc1ccccc1)c1cccc2cccnc12	i	3	0.67	-5	4	0	-0.1	3.3	-1.8
CCn1c(SCC(=O)c2ccccc2)nc2c(c1=O)SC(C)C2 (stereo not drawn)	/	0	0.67	99*	/	/	/	9.0	-1.7
COc1ccc(/C=C2\N=C(c3ccc(C)cc3)OC2=O)cc1	i	5	0.69	/	6	10	0.0	-1.7	2.1
O=C(Nc1ccc(N2CCOCC2)cc1)Nc1ccc2nsnc2c1	i	4	0.67	86*	3	8	-1.3	2.3	-0.1
O=C(CN1C(=O)NC2(CCCc3ccccc32)C1=O)N1CCCCC1 (stereo not drawn)	i	-4	0.65	/	1	0	-0.7	1.4	2.9
N#Cc1ccc2ccn(CC(=O)NCc3ccccc3)c2c1	/	1	0.71	-5	/	/	/	-6.5	5.3
Cc1ccc(NC(=O)COC(=O)CCC(=O)c2cccs2)cc1	i	2	0.72	-3	1	-5	1.8	-2.3	1.4
O=C1C(c2ccccc2)C2C=CC(C2)N1O (stereo not drawn)	i	12	/	/	8	10	1.4	/	2.9
O=C(NC1CCCCC1)c1ccc(Cn2cc(Br)cn2)o1	/	-3	0.74	-17	/	/	/	-1.7	1.5
COc1ccc(N(C(=O)c2ccco2)S(=O)(=O)c2ccc(F)cc2)cc1	/	-6	0.74	0	/	/	/	-1.4	-3.8
CC(C)=C1C2CCC1C1C(=O)N(NC(=O)COc3ccc(Cl)c(C)c3)C(=O)C21 (stereo not drawn)	/	0	0.68	-6	/	/	/	2.2	1.4
COc1cc(OC)c(NC(=O)Cn2cnc3sc(C)c(S(=O)(=O)N4CCOCC4)c3c2=O)cc1Cl	i	0	0.64	-7	0	-2	1.5	1.1	-1.0
O=C(O)CC(c1ccccc1)c1ccccc1	/	-1	0.72	0	/	/	/	4.0	4.9
O=C(N/N=C/c1cccc(Cl)c1Cl)Nc1ccccc1	i	9	/	0	7	12	-3.6	/	-1.5
CN(C)S(=O)(=O)c1ccc(Cl)c(NC(=O)COC(=O)C2CCCO2)c1 (stereo not drawn)	i	-3	0.66	/	1	-1	-6.6	2.6	4.2
CCN(C(=O)CSc1nc2c(cnn2-c2ccccc2)c(=O)[nH]1)C1CCS(=O)(=O)C1 (stereo not drawn)	i	-4	0.65	0	7	7	3.8	4.1	2.8
Cc1onc(-c2c(F)cccc2Cl)c1C(=O)N(Cc1ccccc1)C(C)C	i	-1	0.59	/	-10	-13	4.1	1.9	0.7
COc1ccc(CNC(=O)C2CCCN(c3nccc(C)n3)C2)cc1 (stereo not drawn)	/	1	/	-5	/	/	/	/	-3.0
CCOC(=O)/C=C1\SCC(=O)N1CC(O)CN1C(=O)CS/C1=C\C(=O)OCC	/	8	0.73	/	/	/	/	1.5	-0.3

Only part of the results is shown; the hit share may differ from the screen's.
